MT1-MMP act inh – MT1-MMP (human) activation inhibition; P50281; HT1080 RFP-PRO-GFP cells, GFP/RFP ratio fluorescence, overnight; percent of plate control window, DMSO zero; GFP/RFP ratio change, % at 20 µM; 0.061% of 360,000 active; AID 651647;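 active means GFP/RFP ratio change of at least 30% with cell ATP level not reduced by more than half and red fluorescence within 50% of control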; further: strong numbers were not always called active
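Assay system: HT1080 RFP-PRO-GFP cells | Dosing: 20 µM single dose, 1% DMSO | Incubation: Cells overnight before dosing, compound overnight, 37 °C, 5% CO2 | Evaluation: GFP/RFP fluorescence ratio | Control set: DMSO-only wells and HT1080 RFP-L50D-GFP cell wells as references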
UUG fidelity – alters start codon recognition fidelity in yeast | activity score, % at 18.7 µM | 0.13% of 350,000 active | S. cerevisiae UUG-firefly luciferase reporter, luminescence/redox ratio;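 active means replicate mean at a twofold rise or more, about +100% in these data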;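 further: firefly luciferase made from a UUG start codon reports start codon fidelity; reporter light over untreated wells divided by growth signal over untreated wells; some hits fall short of that in this replicate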
Env fusion inh – blocks HIV Env-driven cell-cell fusion; HeLa-JRFL Env/CEM21 cell fusion, luciferase; inhibition, % at 12.3 µM; 1.1% of 360,000 active; AID 651610;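 active means mean replicate inhibition score of at least 50 and every replicate individually at or above 50; inconclusive means only one of the two criteria met; inactive means mean below 50 and not all replicates reaching 50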;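 further: 0% = plate neutral controls and 100% = maraviroc near 300 nM; one replicate is shown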
Rce1 inh – yeast Ras-converting enzyme inhibition; calls only; 0.27% of 290,000 active; yeast membranes, quenched prenylated peptide cleavage fluorescence;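 active means fall in fluorescence gain of 50% or more versus controls, with final raw signal at or below 3038400; inconclusive means same 50% fall but final raw signal above 3038400; inactive means fall in fluorescence gain under 50%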;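 further: plate controls were neutral control wells for no effect and wells lacking membranes for full effect; tested at 10 µM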
Target sequence (Q03530 whole entry, looked up): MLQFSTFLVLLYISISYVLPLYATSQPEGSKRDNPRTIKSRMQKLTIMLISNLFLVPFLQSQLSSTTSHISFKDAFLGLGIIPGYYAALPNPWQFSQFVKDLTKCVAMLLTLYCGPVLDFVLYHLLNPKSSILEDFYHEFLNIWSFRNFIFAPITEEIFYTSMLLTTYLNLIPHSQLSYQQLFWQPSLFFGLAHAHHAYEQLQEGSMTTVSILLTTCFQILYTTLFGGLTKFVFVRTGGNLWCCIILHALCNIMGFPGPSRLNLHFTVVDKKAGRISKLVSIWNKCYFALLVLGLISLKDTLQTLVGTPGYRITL
eIF4H FP inh – inhibitors of RNA binding by human eIF4H. eIF4H fluorescence polarization binding assay. inhibition, % at 35 µM. 0.94% of 290,000 active. AID 2012;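 active means 50% or more with normal probe brightness, or confirmed in later tests; inconclusive means above 50% with abnormal brightness, or retests that disagree; inactive means below 50% or failed in later tests; about a fifth of its hits are not listed in these tables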;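 further: calls also rest on retests at 20 µM and on dose response follow-up; 0% = protein and probe with vehicle and 100% = probe without protein; strong numbers were not always called active; many hits fall short of the cut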
PABP FP inh – blocks human PABP binding to poly(A) RNA; P11940; fluorescence polarization; inhibition, % at 35 µM; 1% of 290,000 active; AID 2014;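 active means 50% or more with normal probe brightness, or confirmed in later tests; inconclusive means above 50% with abnormal brightness, or retests that disagree; inactive means below 50% or failed in later tests; about a fifth of its hits are not listed in these tables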;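 further: calls also rest on retests at 20 µM and on dose response follow-up; controls were probe without protein and protein plus probe with vehicle; some compounds called inactive have numbers as strong as hits; many hits fall short of the cut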
Target sequence (P11940 whole entry, looked up): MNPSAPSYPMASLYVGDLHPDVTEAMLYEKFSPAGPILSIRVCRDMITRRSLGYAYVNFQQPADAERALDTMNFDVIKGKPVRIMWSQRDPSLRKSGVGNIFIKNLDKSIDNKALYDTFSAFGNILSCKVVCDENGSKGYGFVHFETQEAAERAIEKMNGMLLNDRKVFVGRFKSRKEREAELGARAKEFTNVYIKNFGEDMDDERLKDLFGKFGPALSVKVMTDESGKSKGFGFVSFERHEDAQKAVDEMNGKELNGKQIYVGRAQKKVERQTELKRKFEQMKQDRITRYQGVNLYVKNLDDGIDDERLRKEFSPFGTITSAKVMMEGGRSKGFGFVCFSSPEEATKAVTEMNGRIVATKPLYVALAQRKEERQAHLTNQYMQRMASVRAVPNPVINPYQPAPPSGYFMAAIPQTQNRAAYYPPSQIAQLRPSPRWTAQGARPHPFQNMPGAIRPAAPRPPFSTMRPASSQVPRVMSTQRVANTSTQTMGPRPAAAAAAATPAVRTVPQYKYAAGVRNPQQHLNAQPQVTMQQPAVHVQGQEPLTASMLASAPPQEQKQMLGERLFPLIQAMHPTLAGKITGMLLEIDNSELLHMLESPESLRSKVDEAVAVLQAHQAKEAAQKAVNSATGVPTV
CSC inhib – blocks cancer stem cells; inhibition, % at 7.5 µM; 1.1% of 300,000 active; cancer stem cell-like cells viability, luminescence;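 active means mean at 75% or more and at least half the replicates too; inconclusive means mean and replicates disagree; tested in HMLE shEcad cells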;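 further: 0% = median of negative and 100% = median of positive control wells; the first replicate is given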
eIF4H FP inh retest – recorded beside eIF4H FP inh, whose call it bears; inhibition, %; compound at 20 µM; confirmation average;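 mean of two retest wells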
PABP FP inh retest – also measured in PABP FP inh; calls as there; inhibition, %; compound at 20 µM; confirmation repeats;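 mean of two retest wells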
MT1-MMP act inh RFP – second read-out of MT1-MMP act inh, no call of its own (marks repeat the call); RFP signal change, %; measured here: RFP expression control read;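 0 = vehicle wells; hits needed this value within 50% of zero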
Numbers without * were called inactive; i = inactive; u = inconclusive; x = no result given; + = active, no number.

SMILES | MT1-MMP act inh | MT1-MMP act inh RFP | UUG fidelity | Env fusion inh | Rce1 inh | eIF4H FP inh | PABP FP inh | CSC inhib | others
Cc1ccc(NC(=O)CCNS(=O)(=O)c2ccc3[nH]c(=O)oc3c2)c(C)c1 | 0 | -1 | -6 | -3 | i | -7 | -4 | -11
C/C(=N\O)C(C)(C)Nc1cccc(F)c1 | 2 | 2 | x | 5 | i | 4 | -5 | -3
COc1cccc(OC)c1C(=O)NC(=S)NCc1ccccc1 | 4 | 7 | x | -9 | i | 5 | -9 | -15
O=C(/C=C/NNC(=O)c1cccc(Br)c1)c1cccc(Br)c1 | 3 | -9 | -7 | x | i | -8 | 0 | x
COc1ccc(NC(=S)N2CCNC(=O)C2CC(=O)Nc2cccc(Cl)c2C)cc1 (stereo unspecified) | 0 | 2 | -4 | -4 | i | -14 | -3 | -4
CC(C)CC1=C/C(=C/c2ccc(-c3ccccc3)o2)C(=O)O1 | -7 | 8 | x | -14 | i | 42 | 3 | 12
CCN(CC)c1ccc(C(=O)NNC(=O)CN2C(=O)NC3(CCCCC3)C2=O)cc1 | 0 | 0 | -7 | -24 | i | x | x | 17
O=C(CS(=O)(=O)c1ccccc1)N1CCc2ccccc21 | -1 | 0 | x | -27 | i | 2 | 6 | -10
NS(=O)(=O)c1ccc(CCNC2CC(=O)N(CCc3ccccc3)C2=O)cc1 (stereo unspecified) | 9 | 9 | -15 | x | x | -6 | 1 | -17
COc1ccc(S(=O)(=O)Cc2ccc(C(=O)N3CCN(c4cc(C)ccc4C)CC3)o2)cc1 | 0 | 6 | 16 | 2 | i | -5 | 6 | -8
CCOc1ccccc1NC(=O)NC(C)c1ccc2c(c1)OCO2 (stereo unspecified) | 1 | -2 | -19 | u | i | 7 | -6 | 33
CCc1nnc(NC(=O)c2ccc(NS(=O)(=O)c3ccccc3)cc2)s1 | 3 | -6 | -10 | -44 | + | -5 | 6 | 2
CCOC(=O)C(C)Sc1ccc2nnc(-c3ccc(F)cc3)n2n1 (stereo unspecified) | 3 | -2 | 15 | -8 | i | -6 | -3 | -3
O=[N+]([O-])c1ccc(OS(=O)(=O)Cc2ccccc2)cc1 | 0 | 2 | x | -18 | i | 2.5* | 70* | 11 | eIF4H FP inh retest=88*;PABP FP inh retest=83*
CC(C)(C)NC(=O)C(c1c[nH]c2ccccc12)N(C(=O)Cn1nnc(-c2ccc(Cl)cc2)n1)c1ccccc1F (stereo unspecified) | -41 | -30 | x | -8 | i | 6 | 12 | 33

Molecules above with fluorine (three):
SMILES | MT1-MMP act inh | MT1-MMP act inh RFP | UUG fidelity | Env fusion inh | Rce1 inh | eIF4H FP inh | PABP FP inh | CSC inhib | others
C/C(=N\O)C(C)(C)Nc1cccc(F)c1 | 2 | 2 | x | 5 | i | 4 | -5 | -3
CCOC(=O)C(C)Sc1ccc2nnc(-c3ccc(F)cc3)n2n1 (stereo unspecified) | 3 | -2 | 15 | -8 | i | -6 | -3 | -3
CC(C)(C)NC(=O)C(c1c[nH]c2ccccc12)N(C(=O)Cn1nnc(-c2ccc(Cl)cc2)n1)c1ccccc1F (stereo unspecified) | -41 | -30 | x | -8 | i | 6 | 12 | 33

Remaining list, next part
SMILES | MT1-MMP act inh | MT1-MMP act inh RFP | UUG fidelity | Env fusion inh | Rce1 inh | eIF4H FP inh | PABP FP inh | CSC inhib | others
COc1ccc(NS(=O)(=O)c2cccc(C(=O)OCC(=O)N3CCN(c4ccc(OC)cc4)CC3)c2)cc1 | 4 | -28 | -13 | 33 | x | x | x | 3
CCC1CCCCN1CCNS(=O)(=O)c1ccc2c(c1)oc(=O)n2C (stereo unspecified) | 3 | 6 | -21 | -2 | i | -1 | -5 | -13
COc1ccc(C(CNC(=O)Nc2ccccc2)N2CCN(C)CC2)cc1 (stereo unspecified) | 0 | 3 | -7 | -6 | i | 7 | 7 | -3
Cc1ccccc1CN1CCN(S(=O)(=O)c2cccs2)CC1 | 1 | 1 | -19 | 5 | i | -12 | -1 | 0
Cc1cccc([N+](=O)[O-])c1NC(=O)COC(=O)C1CCCO1 (stereo unspecified) | -4 | 2 | -2 | 0 | x | x | x | 0
COc1ccc(NC(=O)Cc2nnc(SCC(=O)Nc3nccs3)n2C)cc1 | -1 | 2 | -12 | -10 | x | 9 | 0 | -10
O=C(Nc1c(C(=O)Nc2cccc(F)c2)oc2ccccc12)c1ccc2c(c1)OCO2 | 2 | 2 | -14 | -30 | i | -9 | -3 | 8
CC(=O)Oc1c(Br)cc(N(C(C)=O)S(=O)(=O)c2ccccc2)c2ccccc12 | -6 | -2 | 8 | 3 | i | -13 | -1 | 24
CCC(=O)N1CCc2cc(Br)cc(S(=O)(=O)N(C)c3ccc(OC)cc3)c21 | 4 | -4 | x | 26 | i | 6 | 5 | -5
CC1(C)OC(=O)C(=CNCC(O)c2ccccc2)C(=O)O1 (stereo unspecified) | 4 | 7 | -19 | -21 | i | -7 | -9 | -4
CCOc1ccc(NC(=S)Nc2ccc(OC(F)(F)F)cc2)cc1 | -1 | 2 | -5 | x | i | -5 | -14 | -14
Cc1cccc(C)c1-c1ccc(CN2C(CC(C)C)C(=O)N(Cc3cn(CCO)nn3)CCS2(=O)=O)cc1 (stereo unspecified) | 6 | 6 | -8 | -8 | x | x | x | x
CCCCn1c(N)c(N(CCOC)C(=O)c2ccc(-c3ccc(Cl)cc3)o2)c(=O)[nH]c1=O | -3 | 1 | x | -2 | i | x | x | 8
O=C(CN1CCN(S(=O)(=O)N2CCCCC2)CC1)Nc1ccc(Br)cc1 | -1 | 1 | 5 | 12 | i | -10 | -13 | -2
CCc1ccc(N(C(=O)c2ccco2)C(C(=O)NC2CCCC2)c2cccnc2)cc1 (stereo unspecified) | -5 | 0 | x | 7 | x | -8 | 7 | 16
NC(N)=N/N=C/c1ccc(OCc2ccc(Cl)cc2Cl)cc1 | -1 | -9 | -19 | x | x | 7 | -27 | x
O=C(CCc1ccccc1O)NC1CCCc2ccccc21 (stereo unspecified) | -2 | -1 | -14 | -4 | i | -5 | -8 | -2
Cc1ccc(NC(=O)C2CC(=O)N(Cc3ccco3)C2)cc1 (stereo unspecified) | 3 | 2 | x | -7 | i | -7 | 9 | -10
Cn1c(NC(=O)C[n+]2cc(-c3ccc(Cl)c(Cl)c3)n3c2CCC3)cc(=O)n(C)c1=O | 2 | 0 | x | 5 | i | 0 | -8 | -6
CC(=O)Nc1sc2c(c1C(c1cccc(Cl)c1)N1CCN(CCO)CC1)CCCC2 (stereo unspecified) | -1 | 1 | -12 | -18 | i | 2 | -3 | -1
Cc1ccccc1C(=O)c1cccn1CC(=O)NCCCN1CCc2ccccc2C1 | -3 | -4 | x | 1 | i | 5 | 8 | -7
COC(=O)c1cc(S(=O)(=O)NCC2CCN(Cc3cccc(F)c3)CC2)cn1C | 2 | 3 | -17 | -8 | i | 8 | -1 | 0
CCCCS(=O)(=O)NC1=NCN(CC)CN1 | 4 | 2 | -32 | x | i | 0 | -9 | -13
CCOC(=O)C(C)Oc1cc(Cl)c(C=O)cc1OC (stereo unspecified) | 1 | 5 | x | 17 | i | 4 | 9 | -12
Cc1ccc(-c2noc(C3CCCN(C(=O)c4cccc([N+](=O)[O-])c4)C3)n2)o1 (stereo unspecified) | 1 | -1 | -13 | -5 | i | -4 | -1 | 18
CCCCC(CC)CNC(=O)c1[nH]c(C)c(C(C)=O)c1C (stereo unspecified) | 3 | -20 | 1 | 6 | i | -3 | -21 | 0
O=S1(=O)CCN2C(=N1)Sc1c2ccc2c1CCCC2 | 6 | 4 | -8 | x | i | 0 | 10 | 2
Nc1cc(S(=O)(=O)N2CCOCC2)ccc1N1CCOCC1 | -1 | 3 | -7 | x | x | x | x | 9
Cc1ccn2c(c1)nc(=O)c1cc(S(=O)(=O)N3CCOCC3)ccc12 | -1 | 5 | -16 | -1 | i | 5 | 13 | -7
CSc1nc2ccc(S(=O)(=O)Nc3c(C)n(C)n(-c4ccccc4)c3=O)cc2s1 | 3 | 1 | -13 | x | i | -6 | 5 | 8
Cc1cc(C)n2c(SCCC(C)C)nnc2n1 | 0 | 4 | -17 | x | i | 4 | 50 | -13
Cc1onc(-c2c(Cl)cccc2Cl)c1C(=O)Nc1nc(C(C)(C)C)cs1 | -43 | -39 | -18 | 2 | i | -9 | 6 | x
N#Cc1ccc(N2CCCNCC2)nc1 | -4 | 0 | -12 | 7 | i | 2 | 10 | -5
Cc1cc(C)c(-c2cc(NC(=O)COC(=O)c3ccc(NC(=O)CC#N)cc3)n(-c3ccccc3)n2)cc1C | 1 | 1 | -14 | -4 | i | x | x | 0
O=C(COc1ccccc1)N=C1SC2CS(=O)(=O)CC2N1c1ccc(F)cc1F (stereo unspecified) | -3 | 1 | -14 | 4 | i | -13 | -5 | 2
COc1ccc(OC)c(NC(=O)CCNS(=O)(=O)c2ccc3c(c2)oc(=O)n3C)c1 | -3 | 0 | -14 | x | i | 8 | -7 | -10
CCOC(=O)C1=C(C)N(c2ccc(C)cc2)C(=O)/C1=C\c1ccc(O)c(OC)c1 | -6 | -2 | x | 12 | i | -6 | 2 | 0
NC(CCc1ccccc1)c1csc(Nc2ccc(C(=O)NCCO)cc2)n1 (stereo unspecified) | 13 | -2 | -1 | 14 | x | x | x | x
Cc1sc(NC(=O)CN(Cc2ccccc2)C(=O)C2CC2)c(C(N)=O)c1C | 2 | -2 | x | 7 | i | -5 | -3 | 3
CCS(=O)(=O)N1Cc2ccccc2CC1C(=O)NCCc1ccccc1 (stereo unspecified) | 1 | 3 | -7 | -31 | i | -6 | 6 | -2
O=C(CCCn1c(=O)[nH]c2ccsc2c1=O)N1CCCCC1 | 3 | 2 | -12 | -31 | x | 4 | 10 | -1
COc1cc(CNCc2cccs2)ccc1OCc1ccccc1 | 1 | -4 | 0 | x | i | 23 | 21 | 31
O=C(O)c1ccccc1NC(=O)C1CCN(S(=O)(=O)c2ccc3c(c2)OCCO3)CC1 | 5 | 6 | -15 | -17 | x | x | x | x
COc1ccc(Nc2nc(CC(C)=O)ns2)cc1 | 8 | 2 | 7 | x | i | -3 | 10 | -6
CN(c1ccccc1)c1ncccn1 | 4 | 2 | -16 | 16 | i | x | x | -12
CCCc1nnc(NC(=O)CCC(=O)NCCc2ccc(OC)c(OC)c2)s1 | 1 | 0 | x | x | i | -9 | -3 | 2
Cc1ccc(CNC(=O)CSc2nc(N3CCCCC3)nc(N3CCCCC3)n2)cc1 | -6 | -7 | 11 | x | i | 9 | 3 | -1
COc1cccc(NC(=S)N(CCN(C)C)C(C)c2ccncc2)c1 (stereo unspecified) | -1 | 0 | -32 | 24 | i | -3 | 0 | -6
CCOC(=O)C1(Cc2ccccc2)CCCN(Cc2ccc(OCC)c(CO)c2)C1 (stereo unspecified) | -2 | 0 | 12 | 31 | i | -7 | 3 | -15
CCOC(=O)C1CCN(C(=O)c2cccc(NC3=NC4CS(=O)(=O)CC4S3)c2)CC1 (stereo unspecified) | 2 | 6 | 7 | 6 | i | -5 | -6 | -6
CC(C)(C)c1cc(NCc2ccccn2)n2ncc(-c3ccc(Cl)cc3)c2n1 | 5 | -1 | -9 | 23 | i | -1 | -8 | 56
CC(NC(=O)NC1CCCCC1)C(c1cccs1)N1CCN(c2ccccc2)CC1 (stereo unspecified) | -9 | -7 | -6 | 48 | i | -5 | 3 | 6

Screening results deposited in PubChem BioAssay by several laboratories.
